Screening results as filed in PubChem BioAssay.
HSD17B inh: qHTS Assay for Inhibitors of HSD17B4, hydroxysteroid (17-beta) dehydrogenase 4. 75,000 compounds, 7.6% hits. recombinant HSD17B10, NADH fluorescence kinetic; many of its hits are not listed in these tables. AID 893, 2007. Potency, µM (titrated, usually from 57.1 µM), for inactives: at the top dose activity change, negative = inhibition, usual class: inhibitors. 3-hydroxyacyl-CoA dehydrogenase type-2 (Homo sapiens), Q99714; active means well fitted inhibition curve with a large enough effect; inconclusive means small, poorly fitted or top-dose-only effect; inactive means no such curve, though single readings can be large or run the other way;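 further: the protocol describes HADH2 (HSD17B10) and not the HSD17B4 of the title; nearly all actives have a fitted effect of over 70% in size; most hits overshoot -100% by far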
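20 nM HADH2, pH 9.0 Tris/Tween; cpd preinc 15 min RT; start w/ 1 mM NAD+ + 90 uM b-hydroxybutyryl-CoA; kinetic fluor ex360/em450 q30s x 4 min; delta last-first.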
Active calls of the source: *; ? = inconclusive; & = joins results of further samples; [ ] = another dose, or the depositor's remark. On the % scale 0 is the no-effect control and ±100 the full control effect; potency means the concentration at half of the fitted maximal effect. These rows are one share of the data; rates above refer to the full screens.

Compound	HSD17B inh
CN(C)CCCN1C(=O)C(O)=C(C(=O)c2cccs2)C1c1ccccn1 (stereo unspecified)	9%
CSc1ccc(NC(=O)CC(C)=O)cc1	-9%
Brc1ccc(CSc2ncnc3nc[nH]c23)cc1	-8%
CCN1CCN(c2cc(C)c3cc(NC(=O)c4cnccn4)ccc3n2)CC1	-6%
Cc1ccc(C)c(CN2C(=O)C(C)Oc3ccc(C)cc32)c1 (stereo unspecified)	2%
Cc1ccccc1NC(=O)C1CC(=O)N(c2ccccc2F)C1 (stereo unspecified)	-9%
COC(=O)C1CCN(C(=O)COc2ccc(Cl)cc2)CC1	14%
CC(C)(C)CC(C)(C)c1ccc(O)c(C[N+](C)(C)[O-])c1	-6%[11.4 µM]
O=C(c1ccco1)N1CCC2(CCCN(c3ncccn3)C2)CC1	-25%
CC1=NC2(CCCc3c2no[n+]3[O-])N(O)C1(C)C (stereo unspecified)	2%
CCCC1CCC(C(=O)Nn2cnc3ccccc3c2=O)CC1 (stereo unspecified)	9%
CCCc1cc(=O)n2[nH]c(NCc3ccc(Cl)cc3Cl)nc2n1	0%
CC(C)(C)NC(=O)C(c1ccncc1)N(C(=O)CNC(=O)c1ccco1)c1ccc2c(c1)OCO2 (stereo unspecified)	2%
CC(=O)Nc1ccccc1-c1nc2ccc(C(=O)N3CCN(c4ccccc4)CC3)cc2[nH]c1=O	?
CCOC(=O)c1c(NC(=O)Cn2c(C)nc3ccccc32)sc2c1CCC2	-12%
O=C(CSc1nnc(-c2ccc3c(c2)OCCO3)o1)NC1CCCCC1	0%
O=C(Nc1nc(-c2ccc(S(=O)(=O)N3CCCC3)cc2)cs1)C1COc2ccccc2O1 (stereo unspecified)	?
Cc1ccc(-c2ccc(=O)n(CC(=O)Nc3cccc(C(=O)N4CCN(C)CC4)c3)n2)cc1	?
CCN(CC)C(=O)CN(C)S(=O)(=O)c1cccc2nsnc12	11%
Cc1nc(SCC(=O)N(C)Cc2ccco2)c2c(C)c(C)sc2n1	-13%
O=C(CSc1nnc2ccccn12)N1CCc2ccccc2C1	32µM*
CC1CCCN(c2nc3c(c(=O)n(C)c(=O)n3C)n2CCSc2nc3ccccc3o2)C1 (stereo unspecified)	0%
O=C(c1ccco1)N1CCN(C(=O)C2CCCN(S(=O)(=O)Cc3ccccc3)C2)CC1 (stereo unspecified)	8%
COc1ccc(C(=O)COC(=O)CCN=C2NS(=O)(=O)c3ccccc32)cc1OC	-12%
COC(=O)C(CCCCNC(=O)OCc1ccccc1)NC(=O)CN (stereo unspecified)	4%
CC(=O)Nc1ccc(S(=O)(=O)N2CCN(S(=O)(=O)N3CCCCCC3)CC2)cc1	2%
COc1ccc(NC(=O)c2ccc3c(=O)n(Cc4ccco4)c(=S)[nH]c3c2)c(OC)c1	-15%
CCCC(=O)N(Cc1cc2cc(C)ccc2[nH]c1=O)c1ccccc1OC	?
Cn1ncc2c(Cl)ncnc21	2%[11.4 µM]
COc1ccc(NC(=O)N2CCC(c3nc(-c4cccs4)no3)CC2)cc1	2%

Part of the list above in another layout:
COC(=O)C1CCN(C(=O)COc2ccc(Cl)cc2)CC1
  HSD17B inh: 14%
CC1=NC2(CCCc3c2no[n+]3[O-])N(O)C1(C)C (stereo unspecified)
  HSD17B inh: 2%
COc1ccc(NC(=O)c2ccc3c(=O)n(Cc4ccco4)c(=S)[nH]c3c2)c(OC)c1
  HSD17B inh: -15%

Sorted by molar mass (high to low): four of the compounds above
Compound	HSD17B inh
CCCC(=O)N(Cc1cc2cc(C)ccc2[nH]c1=O)c1ccccc1OC	?
COC(=O)C(CCCCNC(=O)OCc1ccccc1)NC(=O)CN (stereo unspecified)	4%
Cc1ccc(C)c(CN2C(=O)C(C)Oc3ccc(C)cc32)c1 (stereo unspecified)	2%
CSc1ccc(NC(=O)CC(C)=O)cc1	-9%

Additional structures
Compound	HSD17B inh
CCCN(CCC)S(=O)(=O)c1ccc(C(=O)N2CCC(=O)c3ccccc32)cc1	0%
CCc1cccc2c(=O)c(C(=O)NCCN3CCOCC3)c[nH]c12	7%
CCc1nnc(SCc2cn3c(C)cc(C)nc3n2)n1N	25µM*
Cc1ccc(S(=O)(=O)O[C@H]2C[C@@H](C(C)(C)C)CC[C@@H]2c2ccccc2)cc1	1%[11.4 µM]
Cc1cc(C)n2nnnc2c1C#N	-19%
Cc1cc(C)n(S(=O)(=O)c2cccc(Cl)c2Cl)n1	-3%
Cc1ccc(Cn2c(C(=O)NCCCN3CCOCC3)cc3sccc32)cc1	-14%
CCOC(=O)c1[nH]c(C)c(C(=O)NCc2ccc(OC)cc2)c1C	2%
CCn1c(SCC(=O)NCCc2ccc(OC)c(OC)c2)nc2c1c(=O)n(C)c(=O)n2C	-2%
Brc1cc2c(cc1Cn1c(-c3cncs3)nc3ccccc31)OCO2	-25%
Nc1nc2c([nH]c(=S)n2C2OC(CO)C(O)C2O)c(=O)[nH]1 (stereo unspecified)	-10%
CCCCOC(=O)CCNc1n[nH]c(=O)[nH]c1=O	4%
COc1ccccc1CCn1c(=O)c(-c2ccc(Cl)cc2)nc2cncnc21	-5%
CCn1c(CC(=O)Nc2cccc(OC)c2)nnc1SCC(=O)Nc1nccs1	7%
CCOC(=O)c1sc2ncn(C(C)C(=O)OCC)c(=O)c2c1C (stereo unspecified)	2%
COc1ccc(-c2coc3cc(O)ccc3c2=O)c(OC)c1O	32µM*
COc1cccc(-c2cc(C(F)(F)F)n3ncc(C(=O)O)c3n2)c1	?
CCc1cc(C)cc(OCCNC(=O)c2ncn[nH]2)c1	2%
O=C1c2oc3ccc(F)cc3c(=O)c2C(c2ccccc2)N1CC1CCCO1 (stereo unspecified)	6%
COc1cc(OC)c(C2C3=C(CCCC3=O)Nc3nc4ccccc4n32)cc1OC (stereo unspecified)	-17%
Cc1onc(-c2ccccc2)c1C(=O)n1cccn1	4%
O=C(CCCn1c(=S)[nH]c2cc3c(cc2c1=O)OCO3)N1CCN(c2ccccc2F)CC1	4%
O=C(Cn1cnc2c(nnn2Cc2ccc(F)cc2)c1=O)N1CCCCC1	-1%
CCCCCCC(=O)Cc1cc(OC)c(OC)cc1/C=C(/C(C)=O)C(=O)OC	7%[11.4 µM]
Cc1ccc(CCNC(=O)C2CCC(=O)N2Cc2cccnc2)cc1 (stereo unspecified)	8%
CCOC(=O)c1cnn(-c2ccccc2)c1NC(=O)c1ccccc1	2%
O=C(CSc1nnc(-c2ccoc2)o1)N1CCOCC1	7%
O=C(CNC(=O)c1ccccc1C(=O)O)c1ccccc1	-15%
Cc1cc(O)c(-c2cc(O)c(C)cc2O)cc1O	1µM*
Cn1cnc2cc(OC(=O)c3ccccc3)ccc21	1%

Retrieved by compound from the entries so far (seven):
Compound	HSD17B inh
O=C(CNC(=O)c1ccccc1C(=O)O)c1ccccc1	-15%
Cc1onc(-c2ccccc2)c1C(=O)n1cccn1	4%
O=C(CSc1nnc(-c2ccoc2)o1)N1CCOCC1	7%
Cn1cnc2cc(OC(=O)c3ccccc3)ccc21	1%
Cc1cc(O)c(-c2cc(O)c(C)cc2O)cc1O	1µM*
O=C(CCCn1c(=S)[nH]c2cc3c(cc2c1=O)OCO3)N1CCN(c2ccccc2F)CC1	4%
CCCN(CCC)S(=O)(=O)c1ccc(C(=O)N2CCC(=O)c3ccccc32)cc1	0%

Other compounds.
Compound	HSD17B inh
COc1ccc(CCN(Cc2cc3cc4c(cc3[nH]c2=O)OCO4)C(C)=O)cc1OC	4%
O=C(O)CSc1nnc(Cn2c(=O)sc3ccccc32)n1-c1cccc(Cl)c1	4%
Cc1cc(C)n(CC(O)Cn2c3ccccc3c3ccccc32)c(=O)n1 (stereo unspecified)	-1%
CCCCN(CCCC)C(=O)CN(C)S(=O)(=O)c1ccc2c(c1)n(C)c(=O)c(=O)n2C	?
CC(=O)OC[C@@H]1O[C@H](C/C=N\OC[C@@H](O)[C@H]2O[C@H]3OC(C)(C)O[C@H]3[C@@H]2O)C=C[C@@H]1OC(C)=O	8%[11.4 µM]
COCc1c(C(=O)OCc2nc(N)nc(Nc3ccccc3C)n2)oc2ccccc12	-9%
CC(C(=O)NC1CCCC1)N(Cc1ccc2c(c1)OCO2)C(=O)c1snc(C(N)=O)c1N (stereo unspecified)	?
O=C(COc1ccccc1F)NC1CC1	12%
C=CCSc1nnc(-c2ccc(Cl)cc2Cl)o1	-4%
CO[C@H]1COC(=O)C/C=C\[C@H](C)COC(=O)[C@@H](C)NC(=O)C/C=C\[C@@H]1C	-4%[11.4 µM]
Nc1nc2c(c(=O)[nH]1)N(C=O)C(CNc1ccc(C(=O)NC(CCC(=O)O)C(=O)O)cc1)CN2 (stereo unspecified)	8%
O=C(NCc1cccs1)c1noc2c1CCCC2	-8%
O=C1N2CCSC2=NC1(Nc1nccs1)C(F)(F)F (stereo unspecified)	6%
O=c1cnc2cnc(Oc3ccccc3)nc2n1Cc1cccs1	5%
COc1cc(NC(=O)c2ccco2)c(OC)cc1NC(=O)Nc1ccccc1Cl	-142%
COC(=O)c1ccc2c(c1)N(Cc1cc(C)ccc1C)C(=O)c1ccccc1S2=O (stereo unspecified)	0%
Cc1ccc(C(C(=O)NC(C)(C)C)N(C(=O)c2csnn2)c2ccccc2F)o1 (stereo unspecified)	5%
O=C1C2C3C=CC(C3)C2C(=O)N1c1cccc(N2C(=O)C3C4C=CC(C4)C3C2=O)n1 (stereo unspecified)	2%
O=C(COc1ccccc1O)N1CCN(C(=O)c2ccco2)CC1	6%
CC(C)(C)c1ccc(O)c(CN(Cc2cc(C(C)(C)C)ccc2O)C2CCCCC2)c1	-3%[11.4 µM]
Cn1c(=O)n(C)c2cc(NS(=O)(=O)c3ccc4c(c3)CCCC4)ccc21	11%
CC(C)(C)Nc1nc(OCC(F)(F)F)nc(OCC(F)(F)F)n1	4%
COC(=O)C(C)Sc1nnc(-c2ccncc2)o1 (stereo unspecified)	3%
O=S(=O)(c1ccc(S(=O)(=O)N2CCN3CCCC3C2)cc1)N1CCCC1 (stereo unspecified)	10%
Cc1ccc(-c2nnc(CSc3nc4cc5c(cc4cc3C)OCO5)o2)cc1	-1%
Cc1nc2ccccc2c2oc(C(=O)NCCCN3CCC(C)CC3)cc12	-23%
C/C=C1\C(=O)C[C@@H]2[C@@H]3CCC4=CC(=O)CC[C@@]4(C)[C@H]3CC[C@@]12C	-3%
COc1ccccc1-c1ccc2ncnc(NCCN3CCOCC3)c2c1	-26%
Cc1onc(-c2ccccc2)c1C(=O)Nc1nnc(N(C)Cc2ccccc2)s1	?
O=C(CNS(=O)(=O)c1cccc2nonc12)NCc1ccc(F)cc1	7%

Molecules above with a COOH group (four):
Compound	HSD17B inh
COc1cccc(-c2cc(C(F)(F)F)n3ncc(C(=O)O)c3n2)c1	?
O=C(CNC(=O)c1ccccc1C(=O)O)c1ccccc1	-15%
O=C(O)CSc1nnc(Cn2c(=O)sc3ccccc32)n1-c1cccc(Cl)c1	4%
Nc1nc2c(c(=O)[nH]1)N(C=O)C(CNc1ccc(C(=O)NC(CCC(=O)O)C(=O)O)cc1)CN2 (stereo unspecified)	8%

More structures
Compound	HSD17B inh
COc1cc(CCC(=O)N2CCN(c3ccc(N4CCOCC4)nn3)CC2)cc(OC)c1OC	25µM*
COC(=O)C1CCN(C(=O)c2sc3nc(-c4ccc(F)cc4)cn3c2C)CC1	6%
CCOc1ccc(-n2cnnn2)cc1S(=O)(=O)NCCc1ccc(OC)c(OC)c1	5%
c1ccc(OCCSc2nnnn2C2CCCCC2)cc1	1%
CCc1cc2c(nc1CC)CCN(CC/C(C)=N/O[C@@H](C)c1cn([C@H](CO)Cc3ccccc3)nn1)C2	1%&7%[11.4 µM]
O=C(Nc1ccccc1)OC[C@H](CN1CCCCC1)OC(=O)Nc1ccccc1	-5%[25.6 µM]
CCCCn1c(SCC(=O)OC)nc2c1c(=O)n(C)c(=O)n2C	-6%
COc1ccccc1NC(=O)C1CCCN(S(=O)(=O)c2cnc[nH]2)C1 (stereo unspecified)	9%
Cc1ccccc1-c1nc(N2CCN(C)CC2)c2ccccc2n1	20µM*
CCc1ccc(NC2CC(=O)N(c3ccc(OC)cc3OC)C2=O)cc1 (stereo unspecified)	1%
c1ccc(Cn2c(CSc3nnnn3-c3ccccc3)nc3ccccc32)cc1	-4%
COc1ccc(CCNC(=O)CCN2C(=O)COc3ccc(C)cc32)cc1OC	6%
